Screening data deposited in PubChem BioAssay by GNF / Scripps  Winzeler lab.
P. yoelii liver: Plasmodium liver-stage growth inhibition, dose response, imaging, Malaria Box, P. yoelii, HepG2-A16-CD81EGFP (AID 602156); calls after a first round at 10 µM; hits with a dose series show IC50 in µM; 4.8% of 5,700 active; P. yoelii liver stage in HepG2-A16-CD81EGFP, imaging; first-round cut-off not given here; in the data active means a potency from the dose series;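 further: infected cells exposed to compound for 48 hours before fixation; stained parasite area by imaging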
Numbers without * were called inactive; i = inactive.

| Molecule | P. yoelii liver |
| --- | --- |
| CCOc1cc(Br)cc(C=NNC(=O)COc2cccc(C)c2)c1O | i |
| CC(C)CC(NC(=O)C(=Cc1ccco1)NC(=O)c1ccccc1)C(=O)OCc1ccccc1 (centres undefined) | i |
| CC1CCC(C(C)(C)Oc2ccc(NC(=O)c3ccccc3)cc2)CC1 (centres undefined) | i |
| COc1ccccc1N1C(=N)SC(=Cc2ccc(N(C)C)cc2)C1=O | i |
| O=C(COC(c1cccs1)c1cccnc1Cl)N1CCN(CCO)CC1 (centres undefined) | i |
| CCOc1ccc(NC2=C(N3CCOCC3)C(=O)c3ccccc3C2=O)cc1 | i |
| CCOC(=O)N1CCN(c2ccc(C(F)(F)F)cn2)CC1 | i |
| O=C(Nc1ccccc1C(F)(F)F)N1CCC(N2CCCCC2)CC1 | i |
| CCCCCN(C(=O)c1ccc(C(C)(C)C)cc1)C(CC)c1nc2ccccc2c(=O)n1-c1ccccc1OC (centres undefined) | i |
| CCOc1ccc(CCNC(=O)Nc2ccc(F)cc2)cc1OCC | i |
| COc1ccc(C2C(C(N)=O)=C(C)Nc3ncnn32)cc1OC (centres undefined) | i |
| N=c1ccn(CC(=O)N2CCCc3ccccc32)c2ccccc12 | i |
| Cc1ccc(C=Cc2ccc(N(C)C)cc2)[n+](C)c1 | i |
| CC(C)CNC(=O)c1ccc(OC2CCN(CC3CCCCC3)CC2)c(Cl)c1 | i |
| OCCCNc1cc(-c2ccnc(Nc3cccc(Cl)c3)n2)ccn1 | i |
| CN1C=C(c2ccc3ccccc3n2)C(C[N+](=O)[O-])c2ccccc21 (centres undefined) | i |
| O=C1CC(c2ccccc2)CC2=C1C(c1ccccc1F)Nc1ccccc1N2 (centres undefined) | i |
| Brc1ccc2[nH]c3nc4ccccc4nc3c2c1 | i |
| Brc1ccc(Nc2nc(NCC3CCCO3)c3ccccc3n2)cc1 (centres undefined) | i |
| O=[N+]([O-])c1ccc(N2CCCN(C(=S)Nc3ccccc3)CC2)nc1 | i |
| CN(C)c1ccc(C=CC=Cc2cc[n+](C)cc2)cc1 | i |
| Cc1cc(NCCCN(C)C)c2ccccc2n1 | i |
| COc1ccc(C(OCCS(=O)(=O)CCO)(c2ccccc2)c2ccc(OC)cc2)cc1 | i |
| COc1ccc(C2N=C(N)N=C(N)N2c2ccc(Cl)cc2)cc1OC (centres undefined) | i |
| Clc1ccc2c(c1)c1cc(Cl)ccc1n2CC1CO1 (centres undefined) | i |
| CN1CCN(c2ccc(Nc3c4ccccc4nc4ccccc34)cc2)CC1 | 0.55µM* |
| COc1ccc2nc(C)cc(Nc3ccc(Oc4ccc(Cl)c5ccccc45)c(Cl)c3)c2c1 | 0.27µM* |
| CC(=NO)c1ccc2c(c1)C(C)(C)CCC2(C)C | i |
| Cc1ccc(-c2nnc(N3CCOCC3)c3ccccc23)cc1S(=O)(=O)N1CCN(C)CC1 | i |
| CC(=NNC(N)=S)C(C)=NNC(N)=S | i |
| CCN1C(=CC=Cc2oc3ccc4ccccc4c3[n+]2CC)Oc2ccc3ccccc3c21 | i |
| COc1cc2c(cc1OC)C(NNC1=NC(C)(C)Cc3ccccc31)=NC(C)(C)C2 | i |
| Cc1ccccc1N(CC(=O)NCC1CCCO1)C(=O)c1snc(C(N)=O)c1N (centres undefined) | i |
| COc1cnc(-c2ccccn2)nc1N1CCCC1 | i |
| O=C(O)c1ccc2c(c1)N=C(c1ccccc1)N(Cc1cccnc1)C2 | i |
| Cc1ccc(NC(=O)N(CCN(C)C)Cc2cc3cc4c(cc3[nH]c2=O)OCCO4)cc1 | i |
| CCCN(CCC)S(=O)(=O)c1cc(Br)cc2c1N(C(=O)CC)CC2 | i |
| COc1cc(NC(=O)Cn2ccc3ccc([N+](=O)[O-])cc32)cc(OC)c1OC | i |
| O=C(Nc1ccc(-c2nc3ccccc3[nH]2)cc1)c1cccc(C(=O)Nc2ccc(-c3nc4ccccc4[nH]3)cc2)n1 | i |
| COc1ccc(-c2cncc3ccc(C(=O)NCc4ccncc4)nc23)cc1 | i |
| CC(C(=O)NN=C1CCN(C)CC1)N(c1ccccc1)S(C)(=O)=O (centres undefined) | i |
| CCCN1CCC(N2C[C@@H](NCc3ccc(OCc4ccccc4)cc3)C[C@H]2C(=O)NCCc2ccc3c(c2)OCO3)CC1 | i |
| CC[n+]1c(C=CN(C)c2ccccc2)oc(-c2ccccc2)c1-c1ccccc1 | i |
| CN(C)CCNCc1cc(-c2ccnc3cc(Cl)ccc23)ccc1O | i |
| CCCCCN(C(=O)c1ccc(C)cc1)C(CC)c1nc2ccccc2c(=O)n1-c1ccccc1OC (centres undefined) | i |
| CC[n+]1c(/C=C/c2ccc(C)cc2)ccc2ccccc21 | i |
| CCN(CC)Cc1cc(Nc2ccnc3cc(Cl)ccc23)ccc1O | i |
| O=C(NN=Cc1ccc(Br)cc1)c1ccco1 | i |
| Cc1cc(NC(=O)c2ccc(S(=O)(=O)N(Cc3ccccc3)C(C)C)cc2)no1 | i |
| Cc1cnc(CCNCc2ccc(OCC(O)CN(C)Cc3ccccc3)cc2)[nH]1 (centres undefined) | i |
| Cc1ccc(C(OCC(C)(C)C[N+](C)(C)C)c2ccccc2)cc1 (centres undefined) | i |
| c1ccc(C[C@H]2CN(c3ccc4ccccc4c3)CCN2CCNCC2CCCO2)cc1 (some centres undefined) | i |
| CN(c1ncnc2sc3c(c12)CCCC3)C1CCCCC1 | i |
| CC(C)CC(=O)N(C)CCCNc1ccnc2cc(Cl)ccc12 | i |
| CCN1C(=Cc2cccc[n+]2C)Sc2ccccc21 | i |
| CC1(C)N=C(N)N=C(N)N1c1ccc(I)cc1 | 0.01µM* |
| CCCCCN(CCCCC)C(O)c1cc2c(c3ccccc13)CCCC2 (centres undefined) | i |
| O=C1[C@@H]2CCCN2C(=O)C(c2ccc(Oc3ccccc3)cc2)N1CCc1ccccn1 (some centres undefined) | i |
| CCOC(=O)NN=C(C)c1ccc(C(C)=NNC(=O)OCC)cc1 | i |
| NC1=NC(c2ccccc2)N(c2ccccc2)C(N)=N1 (centres undefined) | i |

New compounds follow
| canonical_smiles | P. yoelii liver |
| --- | --- |
| c1ccc(CCNc2ncnc3c2[nH]c2ccccc23)cc1 | i |
| Cc1cccc(C2Sc3ccccc3N=C3c4ccccc4C(=O)C32)c1 (centres undefined) | i |
| CCn1c(/C=C/C=C2\N(C)c3ccccc3C2(C)C)[n+](CCCOC(C)=O)c2ccccc21 | i |
| CCC1CCCCN1C(=O)C1CC(=O)N(c2ccc(OC)cc2)C1c1ccc(OC)cc1 (centres undefined) | i |
| COc1cc(OC)c(NC(=O)c2ccc(N3CC4CC(C3)c3cccc(=O)n3C4)c([N+](=O)[O-])c2)cc1Cl (centres undefined) | i |
| CCN(CC)c1nc(NN=Cc2cccc([N+](=O)[O-])c2OC)nc(Nc2ccccc2)n1 | i |
| CC(=O)N(C)C1=C(N2CCOCC2)C(=O)c2ccccc2C1=O | 0.23µM* |
| CCOc1ccc(Nc2cc(C)nc(Nc3ccc(OCC)cc3)n2)cc1 | i |
| NS(=O)(=O)c1ccc(N/C=C/C(=O)c2ccc(Cl)s2)cc1 | i |
| N=c1c2c(n(Cc3ccccc3)c3c1CCC3)CCCC2 | i |
| COc1ccc(CCNc2nc(NCCCn3ccnc3)ncc2C(=O)NCc2ccccc2)cc1OC | i |
| CCOc1ccccc1NC(=O)Nc1ccc2nc(N3CCN(C)CC3)cc(C)c2c1 | i |
| Nc1ccc(-c2nc3cc(Oc4ccc(Oc5ccc6[nH]c(-c7ccc(N)cc7)nc6c5)cc4)ccc3[nH]2)cc1 | 0.32µM* |
| CC1CCN(C2=C(NC3CCCC3)C(=O)c3ccccc3C2=O)CC1 | i |
| CN1CCN(Nc2ccnc3cc4ccccc4cc23)CC1 | i |
| CCCCC(=O)Oc1ccccc1-c1nc2cc(C)ccn2c1NC(C)(C)CC(C)(C)C | i |

Two records picked at random from those above, as already listed:
| canonical_smiles | P. yoelii liver |
| --- | --- |
| NS(=O)(=O)c1ccc(N/C=C/C(=O)c2ccc(Cl)s2)cc1 | i |
| COc1ccc(CCNc2nc(NCCCn3ccnc3)ncc2C(=O)NCc2ccccc2)cc1OC | i |

Continued:
| canonical_smiles | P. yoelii liver |
| --- | --- |
| CCOC(=O)C1=C(N)n2c(sc(=Cc3cccnc3)c2=O)=C(C(=O)OC)C1c1cccnc1 (centres undefined) | i |
| CCN1/C(=C\C=C\c2n(CC)c3cc(C#N)ccc3[n+]2CC)Oc2ccc(-c3ccccc3)cc21 | i |
| COc1ccccc1CN1CCc2nc(N3CCCCC3)sc2C1 | i |
| COCCN1C(=O)C(=O)C(=C(O)c2ccccc2)C1c1ccccc1[N+](=O)[O-] (centres undefined) | i |
| FC(F)(F)c1cccc(CNC2CCN(CCc3ccccc3)CC2)c1 | i |
| CCN1CCN(Cc2c(O)ccc3c(=O)c(Oc4cccc(C)c4)c(C(F)(F)F)oc23)CC1 | i |
| OCCN1CCN(c2cc(-c3cccnc3)nc(-c3ccncc3)n2)CC1 | i |
| O=C(NCCC1=CCCCC1)c1ccc2c(=O)n(-c3ccccc3)c(SCc3nc4ccccc4[nH]3)nc2c1 | i |
| CC(CCc1ccccc1)NCC(O)c1cccc([N+](=O)[O-])c1 (centres undefined) | i |
| COc1ccc(C(NC(=O)COc2ccccc2)c2cc(Cl)c3cccnc3c2O)cc1OC (centres undefined) | i |
| c1ccc2cc3c(N4CCN(CCN5CCN(c6ccnc7cc8ccccc8cc67)CC5)CC4)ccnc3cc2c1 | 2.9µM* |
| COc1ccc(-c2c[n+](CC(=O)c3ccc(C)cc3)c3n2CCC3)cc1 | i |
| Cc1ccc2c(c1)N(C)C(=Cc1cccc[n+]1C)S2 | i |
| CCOC(=O)c1ccc(OCC2c3cc(OC)c(OC)cc3CCN2C(=O)Nc2ccc(Cl)cc2)cc1 (centres undefined) | i |
| CC[n+]1c(/C=C/N(C)c2ccccc2)sc2ccc(Cl)cc21 | i |
| Cc1ccc(/C=C/c2ccc3ccccc3[n+]2C)cc1 | i |
| COc1ccc(-c2nc(NC(=O)CS(=O)(=O)c3ccc(F)cc3)sc2C)cc1 | i |
| CCCc1cc(-c2onc(C)c2-c2ccc(C(=O)OCC)o2)c(O)cc1OC | i |
| COc1ccc(C=CC(=O)Nc2ccncc2)cc1OC | i |
| COc1ccc(CCNc2nc(NCCCn3ccnc3)ncc2C(=O)NCC(C)C)cc1OC | i |
| O=[N+]([O-])c1ccc(-n2cccc2C=NNc2ncnc3sc4c(c23)CCCC4)cc1 | i |
| CCCNC(=O)CSc1nc(C)c(Cc2ccccc2)c(=O)n1C | i |
| CO[C@H](C(=O)[C@@H](O)[C@@H](C)O)[C@@H]1Cc2cc3cc(O[C@H]4C[C@@H](O[C@@H]5C[C@@H](O)[C@@H](O)[C@@H](C)O5)[C@@H](O)[C@H](C)O4)c(C)c(O)c3c(O)c2C(=O)[C@H]1O[C@H]1C[C@@H](O[C@H]2C[C@@H](O[C@H]3C[C@](C)(O)[C@@H](O)[C@H](C)O3)[C@H](O)[C@@H](C)O2)[C@H](O)[C@H](C)O1 | i |
| O=C(C1CCN(S(=O)(=O)c2cccc3nonc23)CC1)N1CCCc2ccccc21 | i |

An excerpt of these results, field by field:
COc1ccc(CCNc2nc(NCCCn3ccnc3)ncc2C(=O)NCC(C)C)cc1OC
  P. yoelii liver: i
O=[N+]([O-])c1ccc(-n2cccc2C=NNc2ncnc3sc4c(c23)CCCC4)cc1
  P. yoelii liver: i
CCCNC(=O)CSc1nc(C)c(Cc2ccccc2)c(=O)n1C
  P. yoelii liver: i
CO[C@H](C(=O)[C@@H](O)[C@@H](C)O)[C@@H]1Cc2cc3cc(O[C@H]4C[C@@H](O[C@@H]5C[C@@H](O)[C@@H](O)[C@@H](C)O5)[C@@H](O)[C@H](C)O4)c(C)c(O)c3c(O)c2C(=O)[C@H]1O[C@H]1C[C@@H](O[C@H]2C[C@@H](O[C@H]3C[C@](C)(O)[C@@H](O)[C@H](C)O3)[C@H](O)[C@@H](C)O2)[C@H](O)[C@H](C)O1
  P. yoelii liver: i

Going on with the list:
| canonical_smiles | P. yoelii liver |
| --- | --- |
| COc1cc(NC(C)CCCN(Cc2ccc(Cl)cc2)C(=O)Nc2cccc(C(F)(F)F)c2)c2ncccc2c1 (centres undefined) | i |
| CCCCCN(C(=O)c1ccc(Br)cc1)C(CC)c1nc2ccccc2c(=O)n1-c1ccccc1OC (centres undefined) | i |
| CCOC(=O)C1=C(C)NC2=C(C(=O)CC(c3ccc(OC)c(OC)c3)C2)C1c1ccccc1C (centres undefined) | i |
| CCc1c(C#N)c(N)nc(SCC(=O)c2ccc(C)cc2C)c1C#N | i |
| c1ccc(N=c2sc(-c3ccccc3)cn2CCCCCCn2cc(-c3ccccc3)sc2=Nc2ccccc2)cc1 | i |
| CCSc1ncnc2scc(-c3ccccc3)c12 | i |
| Cc1cccn2c(=O)c3cc(C(=O)NC4CCCC4)c(=N)n(CCc4ccccc4)c3nc12 | i |
| CC(C)c1ccc(C2N(c3ccccc3)C3(C(=O)c4ccccc4C3=O)C(c3ccc(C(C)C)cc3)C23C(=O)c2ccccc2C3=O)cc1 (centres undefined) | i |
| N#Cc1c2c(c(N3CCN(CCO)CC3)n3c1nc1ccccc13)CCC2 | i |
| Cc1ccc(C#N)c(SCc2nnc(-c3ccc(Cl)cc3)o2)n1 | i |
| CCOc1ccc2nc(SCc3nc(N)nc(N4CCOCC4)n3)sc2c1 | i |
| CCOC(=O)c1ccc2[nH]c(-c3ccccc3)cc(=O)c2c1 | 0.02µM* |
| COc1ccccc1C1CC(c2ccccc2)=NN1C(=O)c1ccccc1 (centres undefined) | i |
| COC(=O)c1ccc2c(c1)C(=O)c1ccccc1C2C1c2ccccc2C(=O)c2cc(C(=O)OC)ccc21 (centres undefined) | i |
| CC(=O)Nc1ccc(NC(=O)C(C)(C)CCl)cc1 | i |
| CCOc1ccc2nc(NCCNC(=O)c3ccco3)c(C)cc2c1 | i |
| CC(C)CNC(=O)c1cnc(NCCCn2ccnc2)nc1NCCc1ccccc1 | i |
| CCCC1=[N+](CC(=O)c2ccc(C)cc2)CCn2c(C)ccc21 | i |
| CC(C)c1ccc(C=CC(=O)NCc2ccco2)cc1 | i |
| CCOC(=O)c1sc(=S)n(-c2ccc(N(C)C)cc2)c1N | i |
| Cc1cc(C)nc(N=C(N)Nc2ccccc2O)n1 | i |
| Nc1ccnc2cc(Cl)ccc12 | i |

A portion of the library; count on the stated rates, not on these rows.
